PINK1 modulator = A Quantitative High throughput Screen to Identify Chemical Modulators of PINK1 Expression. Potency, µM (highest dose often 76.6 µM), without a hit: at the top dose activation (PINK1 increase), hits mostly activators. 410,000 compounds, 0.2% hits. AID 624263, 2012. PINK1 immunofluorescence, high-content cytometry, 24 h; active = well fitted activation curve with a large enough effect; inconclusive = small, poorly fitted or top-dose-only effect; inactive = flat fitted curve, though single readings scatter; cell line not stated here;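 note: potency is the fitted concentration of half-maximal effect; % of control where 0% means no effect; nearly all actives have a fitted effect of over 65% in size; a mitochondrial uncoupler was the plate control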
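Fluorescence from anti-PINK1 antibody, together with nuclear and cell stains, was scanned on a laser-scanning cytometer. Before staining, stable-line cells were incubated 24 hours with compounds at 5 concentrations; primary antibody 12 h at 10 degrees C.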
TRPML1 ag = qHTS for Agonists of the Human Mucolipin Transient Receptor Potential 1 (TRPML1); 410,000 compounds, 0.12% hits; Mucolipin-1 (Homo sapiens), Q9GZU1; AID 624414, 2012; activation, % (test concentration not listed); TRPML1-expressing cells, Ca2+ dye fluorescence, FDSS; host cell line not named in the record; reference of the full effect not given here; in the data active = activation above about 50%; inconclusive = about 30% to 50%; inactive = below about 30%; note: 0% is about no effect; the text of the record puts the active cut at 80%
Target sequence (Q9GZU1 whole entry, looked up): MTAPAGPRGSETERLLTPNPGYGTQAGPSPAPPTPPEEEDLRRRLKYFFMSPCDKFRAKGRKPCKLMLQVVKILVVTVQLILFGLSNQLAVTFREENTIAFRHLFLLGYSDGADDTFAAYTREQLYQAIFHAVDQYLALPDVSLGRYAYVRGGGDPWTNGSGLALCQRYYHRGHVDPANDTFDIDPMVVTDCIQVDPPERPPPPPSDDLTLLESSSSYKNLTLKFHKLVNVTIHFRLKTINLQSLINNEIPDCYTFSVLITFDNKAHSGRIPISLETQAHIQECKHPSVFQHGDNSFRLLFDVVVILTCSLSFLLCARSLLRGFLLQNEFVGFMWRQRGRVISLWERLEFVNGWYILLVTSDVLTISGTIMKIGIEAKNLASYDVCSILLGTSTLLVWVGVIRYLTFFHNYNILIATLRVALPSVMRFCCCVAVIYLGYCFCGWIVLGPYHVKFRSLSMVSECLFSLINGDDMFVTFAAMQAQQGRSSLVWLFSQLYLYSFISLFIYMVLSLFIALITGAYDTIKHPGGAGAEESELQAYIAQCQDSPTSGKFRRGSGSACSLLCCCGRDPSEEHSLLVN
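Tet-induced TRPML1-DL cells, 1,500 per well, cultured overnight, were loaded with a no-wash Ca2+ dye for 45–90 min. Calcium fluorescence was recorded on the FDSS for 110 s after compound addition, before the EC80 agonist (4 uM 54-4) was added.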
TRPV1 PAM = HTS Assay for Compounds that Act as Potentiators of the Vanilloid Receptor 1. potentiation, % at 8.33 µM. TRPV1-expressing cells, Fluo-8 calcium influx, capsaicin EC20 potentiation; host cell line not named in the record; control for the full effect not named in the record. 320,000 compounds, 0.02% hits. Transient receptor potential cation channel subfamily V member 1 (Homo sapiens), Q8NER1; active means potentiation above 80%; inconclusive means 30% to 80%; inactive means below 30%; note: 0% is about no effect
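TRPV1-expressing cells were cultured overnight at 35.5C and loaded with Fluo-8 calcium dye for 40 to 90 min at room temperature. After a 10 s baseline, compound was added and calcium influx was read kinetically for 3 min (ex 480/em 520 nm).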
TRPML1 blocker = qHTS for Inhibitors of the Human Mucolipin Transient Receptor Potential 1 (TRPML1) | Mucolipin-1 (Homo sapiens), Q9GZU1 | TRPML1-inducible cells, Ca2+ dye fluorescence, FDSS; stronger effect = lower value; inhibition of EC80 agonist-evoked calcium signal | activity change, negative = inhibition, % (concentration not given with the values) | 390,000 compounds, 0.02% hits; in the data active means activity change below about -50%; inconclusive means about -30% to -50%; inactive means above about -30%;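 note: stimulus is agonist 54-4 at its EC80 concentration; % is set by controls: 0 for no effect and ±100 for the full control effect; the text of the record puts the active cut at -80%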
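Tet-induced TRPML1-DL cells loaded with Ca8 no-wash calcium dye were read kinetically on FDSS. Compound addition was followed by EC80 agonist 54-4 (4 uM final); inhibition was read over 110 s.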
Sfp PPTase inh = qHTS Assay for Inhibitors of Bacillus subtilis Sfp phosphopantetheinyl transferase (PPTase); Biochemical Sfp PPTase activity, qHTS; Potency, µM, inactives show max response, negative = inhibition, most hits filed as inhibitors; 310,000 compounds, 3.5% hits; active = well fitted inhibition curve with a large enough effect; inconclusive = small, poorly fitted or top-dose-only effect, or another doubt; inactive = no such curve, though single readings can be large or run the other way;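 note: the enzyme is Sfp with the accession as filed and its product quenches rhodamine fluorescence; potency is the fitted concentration of half-maximal effect; 0% = enzyme reaction without inhibitor and -100% = no enzyme wells; top concentration of the series not given in the record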
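Compounds were incubated with enzyme (final 15 nM) for 15 min at room temperature before substrate addition started the reaction. Fluorescence at 525 nm excitation, 598 nm emission was recorded immediately and after 30 minutes.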
ClpP mod = qHTS Assay for Activators of ClpP; Potency, µM (top dose mostly 57.5 µM), inactives show at the top dose activity change, negative = active; AID 651965, 2013; purified B. subtilis ClpP, FRET peptide cleavage, 20 min; 340,000 compounds, 1.9% hits; ATP-dependent Clp protease proteolytic subunit (Bacillus subtilis (strain 168)), P80244; active = well fitted falling curve with a large enough effect; inconclusive = small, poorly fitted or top-dose-only effect; inactive = no such curve, though single readings can be large or run the other way; note: potency is the fitted concentration of half-maximal effect; the source files actives as falling curves though it sought activators and does not explain the sign; nearly all actives have a fitted effect of over 65% in size; many hits overshoot -100%
Target sequence (P80244 whole entry, looked up): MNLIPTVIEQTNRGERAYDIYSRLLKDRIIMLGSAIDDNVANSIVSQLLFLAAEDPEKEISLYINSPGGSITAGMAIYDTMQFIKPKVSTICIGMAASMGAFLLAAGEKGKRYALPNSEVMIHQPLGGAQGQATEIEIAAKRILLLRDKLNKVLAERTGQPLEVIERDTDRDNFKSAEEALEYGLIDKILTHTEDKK
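Purified B. subtilis ClpP, 10 microg/mL final in Tris/HCl pH8 with KCl, BSA, glycerol and Tween-20, cleaved an Abz/nitrotyrosine-quenched decapeptide. Fluorescence (ex 320, em 430) was read at 0 and 20 min at room temperature. Delta was normalized to 5.8 microM ADEP and DMSO/no-enzyme controls.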
Menin-MLL FL inh = qHTS Assay for Inhibitors Targeting the Menin-MLL Interaction in MLL Related Leukemias: Competition With Fluorescein Labeled MLL-derived Peptide; Fluorescence polarization, fluorescein-MLL peptide displacement from menin; FP activity change, % at 61.4 µM; 290,000 tested, under 10 active; inconclusive = falling polarisation curve, or a change in total fluorescence; inactive = total fluorescence flat and polarisation flat or rising; no compound was filed as active; the % refers to the polarisation; negative = inhibition;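 note: % of control where 0% means no effect; inhibitors lower the polarisation; unlabelled MLL peptide was the positive control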
Numbers without * were called inactive; ? = inconclusive; nt = no result given; & = joins results of further samples; [ ] = dose if it differs, or a comment.

Structure,PINK1 modulator,TRPML1 ag,TRPV1 PAM,TRPML1 blocker,Sfp PPTase inh,ClpP mod,Menin-MLL FL inh
O=C1C=C(c2ccccc2)C(=O)N1Nc1ccccc1,-5.8%,6.9,13.4,5.8,10µM*,2.0%,-0.7
O=C(Nc1ccccc1N1CCOCC1)C1Cc2ccccc2CN1C(=O)c1ccco1 (stereo not drawn),-0.5%,1.2,2.4,-8.9,0.8%,-5.2%,4.1
CCc1nc2ccc(C(=O)Nc3cccc(NS(C)(=O)=O)c3)cn2c1N(CCC(C)C)CCN(C)C,3.1%,0.3,nt,nt,nt,0.7%,nt
O=C(O)CCC(=O)NCC1OCCc2ccccc21 (stereo not drawn),?,0.4,14.9,19.9,11.9%,-2.3%,-2.4
Cc1cc(C)n2nc(SC(C)C(=O)N(C)c3ccccc3)nc2n1 (stereo not drawn),1.7%,-0.1,4.7,-11.7,nt,1.2%,nt
CC1CC2(CC(C)(C(=O)CSc3nc4ccccc4s3)OC2=O)C(=O)O1 (stereo not drawn),2.1%,-1.1,-5.6,-1.8,-1.6%,-0.6%,1.0
O=C(NC1CCCc2ccccc21)c1ccc(Cl)nc1 (stereo not drawn),6.5%,1.7,-13.4,8.6,0.0%,-6.0%,2.7
CCc1n[nH]c2c1/C(=N\O)CC(c1ccccc1)C2 (stereo not drawn),0.9%,-0.7,7.4,3.3,15.0%,-0.5%,0.1
CCN1CCN(C(=O)C(Cc2ccccc2)NC(=O)c2ccc(Cl)c(S(=O)(=O)N(C)C)c2)CC1 (stereo not drawn),0.2%,-0.1,nt,18.4,nt,-2.7%,nt
O=[N+]([O-])c1cccc(NC(=S)N2CCc3ccccc32)c1,2.1%,0.7,4.5,13.6,-1.8%,0.0%,nt
Oc1nc(-c2ccc(Br)cc2)n2ccncc12,-0.7%,-0.5,-6.8,-9.3,56.2µM*,nt,13.4
COc1ccc(N2CC(C(=O)N/N=C/c3c[nH]c4ccccc34)CC2=O)cc1 (stereo not drawn),1.8%,-0.6,-0.1,-0.3,18.8%,nt,-1.6
Cc1ccc(Cl)c(NC(=O)Nc2csc3c2CCCC3)c1,-0.5%,-0.1,nt,-10.0,nt,0.9%,nt
CSc1ncccc1C(=O)Nc1cccc(S(=O)(=O)N(C)c2ccccc2)c1,0.7%,1.2,24.6,8.2,nt,-2.3%,nt
CO/N=C/C(C(C)=O)C(=O)Nc1ccc(Cl)cc1Cl (stereo not drawn),10.9%,-1.2,-12.9,-6.6,2.9%,nt,3.1
CCCOC(=O)N[C@@H]1C(=O)N2C(C(=O)OCCC)=C(C)CS[C@H]12,0.7%,-0.7&-0.9,13.4,18.8,?,1.5%&-4.3%,-7.6
CN(c1ccc(C(=O)NCCCn2ccnc2)cc1)S(C)(=O)=O,2.7%,0.6,-4.9,11.6,-8.6%,0.5%,-4.2
Cc1cccc(C)c1NC(=O)CN1C(=O)COc2ccccc21,-0.4%,-0.6,-4.6,2.5,16.1%,0.8%,-0.9
COc1ccccc1/C=N/Nc1nccnc1Cl,nt,-0.5,-3.2,7.1,?,0.8%,2.3
CC(C)c1ccc(NC(=O)CSc2n[nH]c(=O)n2-c2cccnc2)cc1,1.1%,-0.3,1.2,-0.7,-0.8%,0.2%,nt
CC1CCc2sc(C(=O)Nc3ccc(N4CCOCC4)cc3)cc2C1 (stereo not drawn),6.5%,-0.4,-7.8,-3.7,-0.5%,2.4%,-1.6
COc1ccc(OC)c(CNc2sc3c(c2C(=O)Nc2cc(OC)ccc2OC)CCCC3)c1,5.8%,0.0,nt,-6.8,nt,-8.9%,nt
CCC(c1nnc(SCC(=O)Nc2nnc(-c3ccccc3)o2)o1)N(C)C (stereo not drawn),5.9%,0.7,4.6,-12.0,-2.6%,-1.7%,21.9
CCC(C)c1ccc(OCC(=O)Nc2ccc(-c3nc4ncccc4o3)cc2)cc1 (stereo not drawn),-1.5%,1.8,nt,-2.7,nt,?,nt
COc1ccc2cc(C#N)c(SCC(=O)OCc3ccccc3)nc2c1,1.1%,2.6,nt,nt,nt,4.5%,nt
COc1ccccc1N1CCN(C(=O)c2cnn(-c3ccc(C)c(C)c3)c2C2CCN(C(=O)OC(C)(C)C)CC2)CC1,-0.2%,58.7*,nt,-9.5,nt,4.8%,nt
CCCNC(=O)C(Cc1ccc(Cl)cc1)NC(=O)c1ccc(-c2ccccc2)cc1 (stereo not drawn),8.0%,-0.9,-7.3,-0.4,nt,-2.3%,nt
CCc1cc2cccc(C)c2nc1SCC(=O)Nc1nonc1C,-1.4%,0.2,-11.2,-4.5,13.6%,0.6%,1.4
C/C(=N\O)c1cccc(Br)c1,1.8%,1.6,1.5,-7.9,11.0%,-0.9%,5.5
COc1ccc(Cl)cc1C(=O)Nc1ccc2oc(-c3ccc(C(C)(C)C)cc3)nc2c1,1.2%,1.5,nt,16.6,nt,-15.2%,nt
COc1cccc(/C=N/NC(=O)c2ccc3nc[nH]c3c2)c1,4.1%,0.4,13.6,31.6,28.3%,-1.7%,1.4
Cc1ccc(NC2=C([N+](=O)[O-])CS(=O)(=O)C2)cc1,-1.6%[38.3 µM],0.5,5.4,-8.4,3.9%,-0.1%,4.1
CCCN(C(=O)Cn1nc(Cc2ccncc2)c2ccccc2c1=O)c1ccccc1C,0.2%,-0.2,nt,3.9,nt,-5.0%,nt
N#Cc1cnn(CC2CCCCC2)c1N,-1.5%,-0.2,-3.4,4.1,2.8%,-1.1%,-0.2
COc1ccccc1CC(=O)Nc1ncc(C)s1,-0.4%,0.0,9.7,0.5,13.0%,1.2%,-1.9
COCCn1c(C)cc(C(=O)COC(=O)c2ccc(Cl)c(S(N)(=O)=O)c2)c1C,-1.9%,-0.3,-21.8,0.2,nt,-1.5%,nt
O=C(Cn1cnc2ccccc21)OCC(=O)N1CCCCC1,1.5%,0.6,nt,-6.4,nt,-0.9%,nt
CN(C)c1oc(-c2ccccc2F)nc1C#N,-2.1%,2.3,4.0,7.7,-11.6%,4.0%,-0.1
CN(C)C(=S)Nc1cccc(F)c1,4.4%,-0.7,1.0,15.2,20.9%,0.1%,0.3
COC(=O)c1cc(-c2cccc(OC)c2)on1,2.1%,-0.5,-20.2,9.6,2.1%,-1.1%,3.0
Cc1ccc(S(=O)(=O)Nc2cccc(C(=O)Nc3cc(C)ccn3)c2)cc1,nt,nt,1.5,nt,5.9%,nt,5.1
Cc1ccc(OCC(=O)Nc2ccc(C(=O)OCc3cc(=O)n4nc(C5CC5)sc4n3)cc2)cc1,1.2%,-0.7,nt,-7.9,nt,-7.4%,nt
O=C(NCc1nnnn1-c1ccc(F)cc1)c1ccc2c(c1)OCO2,-0.1%,0.3,nt,0.8,nt,-13.2%,nt
CCC(C)[C@H](Nc1nc(-c2ccccc2)nc2c1oc1ccccc12)C(=O)O (stereo partly drawn),-0.6%,-0.9,-0.5,40.8,22.4%,-3.6%,-1.0
COCCCNC(=O)CCC(=O)N1Cc2ccccc2Oc2ncccc21,1.1%,0.2,nt,-18.4,nt,-1.6%,nt
Cc1cccc(N2CCN(CC(=O)Nc3ccc(-n4cnnn4)cc3)CC2)c1C,0.9%,1.2,-4.7,4.9,5.4%,-0.8%,4.6
Cc1nn(C(=O)c2ccccc2)c2c1C(=O)CC(C)(C)C2,3.7%[38.3 µM],-0.5,1.7,36.9,3.7%,1.5%,0.7
CCOc1ccc(NC(=O)CCC(=O)Oc2ccc(C)cc2)cc1,-0.9%,-0.9,-11.5,19.8,-0.3%,-0.4%,-0.4
CC(=O)c1cccc(NC(=O)c2oc(=O)c3ccccc3c2-c2ccccc2)c1,-1.3%,3.6,nt,-16.1,nt,-15.4%,nt
CN(C)Cc1ccccc1-c1ccc2ncnc(N(C)Cc3ccco3)c2c1,0.1%,nt,nt,nt,9.4%,nt,-3.2
Cc1cc(C)nc(NC(=O)c2c(C(=O)O)noc2C)n1,-1.0%,-0.6,2.7,7.8,6.1%,nt,0.1
COc1ccc(-c2cn3cc(C)ccc3n2)cc1Br,3.3%,0.0,-12.6,-1.9,-17.6%,-1.1%,-2.7
N#Cc1ccc(-c2c(-c3ccccc3)ncc3cc(F)ccc23)cc1,0.9%,1.2,-4.7,20.5,nt,?,nt
O=C([C@@H]1CC=C[C@@H]2CCN(C3CC3)C(=O)[C@@H]21)N1CCN(c2ccccc2)CC1,-0.7%,1.4&-0.4,nt,32.5,nt,-1.3%&-0.5%,nt
O=C(CCCN1C(=O)c2ccccc2C1=O)Nc1ccccn1,-1.4%,-0.5,12.0,21.0,22.2%,1.5%,-0.1
Cc1cc(Cl)ccc1NC(=O)CN1CCCC1,-0.2%,0.9,9.8,-1.0,9.7%,nt,-0.2
Cc1ccc(NS(=O)(=O)c2cc(NC(=O)C(C)Oc3ccccc3)ccc2C)c(C)c1 (stereo not drawn),?,0.5,-5.3,-4.1,-15.8%,-3.9%,9.7
Cc1ccc(C(=O)OCC(=O)NNC(=O)COc2ccc(Cl)cc2)c(O)c1,2.3%,-0.7,0.0,-9.8,nt,nt,nt
O=C(COC(=O)c1ccc(Cl)cc1)NC1CCCCCC1,1.4%,4.5,-11.0,9.8,nt,1.4%,nt
CC(=O)c1cccc(NC(=O)CN(c2cccc(F)c2)S(C)(=O)=O)c1,5.9%,0.0,-5.1,-7.6,14.1%,-6.2%,15.4
Cc1cccc(N/C=C(\[N+](=O)[O-])S(=O)(=O)c2ccccc2)c1,0.1%,-0.5,1.4,4.0,11.2%,nt,0.5
Nc1[nH]c(C(=O)c2ccccc2)c(-c2ccccc2C(F)(F)F)c1C(=O)c1cccs1,?,-0.5,nt,nt,nt,-2.5%,nt
Cn1c(N)c(C(=O)CSc2ncn[nH]2)c(=O)n(C)c1=O,2.0%,0.8,7.2,2.4,3.5%,nt,2.6

Bioassay records from PubChem.
